# EPAC2 antag = Validation qHTS for antagonist of cAMP-regulated guanine nucleotide exchange factor 4 (EPAC2); EPAC2 Rap1B BODIPY-GDP exchange, fluorescence; Potency, µM (titrated, usually from 112 µM), inactives show at the top dose activity, negative = inhibition, usual class: inhibitors; actives 1.7% (n = 16,000); Rap guanine nucleotide exchange factor 4 (Homo sapiens), Q8WZA2; AID 1645886, 2021; active = well fitted inhibition curve with a large enough effect; inconclusive = small, poorly fitted or top-dose-only effect; inactive = no such curve, though single readings can be large or run the other way;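 note: 100% = activation by cAMP agonist control; nearly all actives have a fitted effect of over 40% in size; the record reuses the description of the EPAC1 agonist screen; inactives centre near -10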
# Target sequence (Q8WZA2 whole entry, looked up): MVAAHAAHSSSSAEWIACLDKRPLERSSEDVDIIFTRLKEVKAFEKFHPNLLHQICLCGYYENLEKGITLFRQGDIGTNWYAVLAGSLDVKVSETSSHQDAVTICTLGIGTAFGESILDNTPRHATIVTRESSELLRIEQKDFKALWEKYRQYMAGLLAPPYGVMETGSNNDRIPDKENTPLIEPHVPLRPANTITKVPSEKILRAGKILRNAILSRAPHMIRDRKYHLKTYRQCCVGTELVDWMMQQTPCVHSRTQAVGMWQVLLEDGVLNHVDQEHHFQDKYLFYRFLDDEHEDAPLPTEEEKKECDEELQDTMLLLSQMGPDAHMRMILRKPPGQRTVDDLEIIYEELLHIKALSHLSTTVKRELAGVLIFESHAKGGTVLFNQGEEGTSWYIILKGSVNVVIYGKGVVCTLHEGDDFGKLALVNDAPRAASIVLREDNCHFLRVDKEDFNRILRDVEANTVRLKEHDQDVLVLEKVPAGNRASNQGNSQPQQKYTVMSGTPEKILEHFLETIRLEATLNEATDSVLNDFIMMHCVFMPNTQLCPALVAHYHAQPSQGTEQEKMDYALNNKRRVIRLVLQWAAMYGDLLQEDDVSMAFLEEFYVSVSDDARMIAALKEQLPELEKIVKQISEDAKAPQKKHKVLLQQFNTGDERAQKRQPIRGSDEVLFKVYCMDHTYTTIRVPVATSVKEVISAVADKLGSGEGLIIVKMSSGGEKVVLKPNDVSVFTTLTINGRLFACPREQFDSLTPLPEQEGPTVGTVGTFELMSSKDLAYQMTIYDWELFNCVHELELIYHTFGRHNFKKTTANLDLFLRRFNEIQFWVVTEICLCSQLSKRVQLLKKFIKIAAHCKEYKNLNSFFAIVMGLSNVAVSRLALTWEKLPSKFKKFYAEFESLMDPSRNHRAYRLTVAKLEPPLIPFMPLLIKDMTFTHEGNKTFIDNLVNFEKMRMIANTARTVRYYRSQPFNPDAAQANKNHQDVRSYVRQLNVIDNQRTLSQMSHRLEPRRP
#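 Fluorescent exchange read-out: 100 nM EPAC2 with 250 nM RAP1B–BODIPY-GDP and 50 uM GDP; BODIPY-GDP release lowers fluorescence. Read at 480/540 nm every 5 min for 30 min at room temperature; normalized to 6.5 mM cAMP.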
# Active calls of the source: *; ? = inconclusive; & = joins results of further samples; [ ] = remark or other dose. Potency is the fitted concentration of half-maximal effect.
SMILES,EPAC2 antag
C=CC(C1=CC(=O)C(OC)=CC1=O)c1ccc(O)cc1 (stereo unspecified),-20%
Cc1occc1C(=O)NCCN1Cc2ccccc2OC(c2ccccc2F)C1 (stereo unspecified),-9%
N[C@@H](CCCP(=O)(O)O)C(=O)O,-18%
O=C(NC1CCCCC1)[C@@H]1CC=C[C@@H]2CCN(Cc3ccc(Cl)c(Cl)c3)C(=O)[C@@H]21,-3%
O=C(C[n+]1cc(Br)cc2ccccc21)c1ccc(F)cc1,?
CC1(CN2CCC(n3c(=O)[nH]c4ccccc43)CC2)OCc2ccccc2-n2cccc21 (stereo unspecified),?
O=C1CCN(Cc2cccnc2)CCN1[C@H](CO)c1ccccc1,?
Cc1noc(C)c1CCC(=O)N1CCOc2ccc(CN3CCN(c4ccccn4)CC3)cc2C1,-3%
O=C(O)Cc1cc2ccccc2nc1C(=O)O,-17%
Cc1ccc(CN2[C@@H](c3ccccc3)COCCS2(=O)=O)cc1,?
CCCN1CCC(=O)N([C@H](COc2ccccc2)CC(C)C)CC1,10%
CS(=O)(=O)N1CCC2(CC1)CN(C(=O)Nc1ccccc1)C2,-14%
N#C/C(=C\c1cc(Cl)cc(Cl)c1)c1cccnc1,0%[151 µM]
CCOC(=O)C[C@H]1c2ccc(C(F)(F)F)cc2S(=O)(=O)N1C(C)C,?
Cc1noc(C)c1-c1ccc2ncnc(NCc3cccs3)c2c1,?
CC(C)CN1CCC(=O)N(CCO)CC1,-8%
CC(=O)N1CCC2(CCN(Cc3ccccc3)CC2)CC1,-12%
Cc1cccc(CNc2ccnc(-c3ccoc3)n2)c1,-18%
CO[C@H]1[C@@H](O)[C@H](N)[C@@H](O[C@H]2O[C@H]([C@H](C)N)CC[C@H]2N)[C@H](O)[C@@H]1N(C)C(=O)CN,11%
CC/C=C\C[C@H]1C(=O)CC[C@@H]1CC(=O)O,-19%
O=C(NCC1CCC2(CCN(Cc3ccc4ncccc4c3)CC2)O1)C1CCCO1 (stereo unspecified),0%
COc1ccc(Cc2cnc(N)nc2N)cc1OC,-1%
Nc1nc(F)nc2c1ncn2[C@@H]1O[C@H](CO)[C@@H](O)[C@@H]1O,-7%&19%
Cc1cc(C)nc(S[C@@H]2C[C@@H](C(=O)N3CCCN(C)CC3)N(Cc3cc(F)ccc3F)C2)n1,-5%
COCCn1c(=O)c(-c2ccc(F)cc2)nc2cnc(OCc3ccccc3)nc21,-19%

# Further structures follow.
SMILES,EPAC2 antag
CCCCCCC[n+]1ccc(/C=C/c2c[nH]c3ccccc23)cc1,226%[activator]
CCN(CCO)CCCC(C)Nc1ccnc2cc(Cl)ccc12 (stereo unspecified),-6%&-7%
CSc1ccc2c(c1)[C@H](N1CCN(C)CC1)Cc1ccccc1S2,-31%
Nc1nc2c(nc(Br)n2C2CC(O)C(CO)O2)c(=O)[nH]1 (stereo unspecified),-6%
COc1ncc2nc(C)c(=O)n(Cc3ccc(F)cc3)c2n1,-11%
Cc1ccccc1C1(CC(=O)N2CCCC2c2nccs2)CC(=O)N(C2CCCC2)C1=O (stereo unspecified),-17%
Cc1ccc2c(c1)CC[C@H]1CC(=O)CC[C@@]21C,-25%
COCCNc1ncnc2ccc(-c3ccccc3CN(C)C)cc12,-6%
CC(=O)OC1CC2C(C)(C)C(=O)C3OC3[C@]2(C)C2CC[C@@]3(C)C(c4ccoc4)OC(=O)C4OC43[C@]12C (stereo partly specified),-10%
CC(=O)OCC(CCn1cnc2cnc(N)nc21)COC(C)=O,-12%
Cc1ccc(SCCN2CCC(C(C)(C)C)CCC2=O)cc1 (stereo unspecified),-7%
COc1ccc2cc(CNCc3ccccc3Cl)c(N3CCCC(CO)C3)nc2c1 (stereo unspecified),4%
C[N+]1(C)[C@@H]2CC(OC(=O)[C@H](CO)c3ccccc3)C[C@H]1[C@H]1O[C@@H]12 (stereo partly specified),-40%
COc1cccc(-c2cncnc2NCCc2cnc[nH]2)c1,-12%
COc1ccc(-c2nc3cnc(N4CCOCC4)nc3n(C)c2=O)cc1,12%
OC(CN1CCCCC1)c1cc(-c2ccccc2)on1 (stereo unspecified),3%
CN(Cc1cnc2ccccn12)C1CCN(c2cccc(NC(=O)c3cccnc3)c2)CC1,-33%
O=c1c(-c2ccccc2)nc2cnc(Oc3ccccc3)nc2n1C1CC1,-20%
COc1ccc(OC)c(-c2cc(Cl)c3c(c2)CC(CNC(=O)C(C)N2CCOCC2)O3)c1 (stereo unspecified),-25%
O=C(c1ccncc1)N1CCC2(CC1)CN(C(c1ccccc1)c1ccccc1)C2,?
Cc1nc2cnc(N3CCOCC3)nc2n(C)c1=O,4%
COCCn1c(=O)c(C)nc2cnc(N(C)C)nc21,-12%
C[C@@](N)(C(=O)O)[C@@H]1C[C@@H]1C(=O)O,5%
Nc1nc2c(c(=O)[nH]1)N(C=O)C(CNc1ccc(C(=O)N[C@@H](CCC(=O)O)C(=O)O)cc1)CN2 (stereo partly specified),0%[56.6 µM]
NC[C@](O)(CS(=O)(=O)O)c1ccc(Cl)cc1,-23%

# Following part.
SMILES,EPAC2 antag
FC(F)(F)c1ccccc1-c1nc(N2CCNCC2)c2ccccc2n1,-15%
CCC(=O)c1ccc2c(c1)N(CCCN(C)C)c1ccccc1S2,2%&-5%
Cc1ccc(C)c(CN2CCc3nnc(CNC(=O)c4cc(C)oc4C)n3CC2)c1,-6%
Cc1ncc2c(c1CNS(=O)(=O)N(C)C)CCN(C(=O)c1c(F)cccc1F)C2,16%
CCOC(=O)C1CCCN(C(=O)c2cnn(-c3ncc4c(n3)-c3ccccc3CCC4)c2C2CC2)C1 (stereo unspecified),14%
O=C(Nc1ccc(C(=O)Nc2ccc(C(=O)Nc3ccc(S(=O)(=O)O)c4cc(S(=O)(=O)O)cc(S(=O)(=O)O)c34)cc2)cc1)Nc1ccc(C(=O)Nc2ccc(C(=O)Nc3ccc(S(=O)(=O)O)c4cc(S(=O)(=O)O)cc(S(=O)(=O)O)c34)cc2)cc1,22µM*
COc1ccccc1C(=O)N(Cc1cc2cc3c(cc2nc1N(C)C)OCO3)CC1CCCO1 (stereo unspecified),?
Fc1ccc(Nc2ccnc(-c3ccc4c(c3)OCO4)n2)cc1,-21%
CC(C)=CCn1cnc2c1c(=O)n(C)c(=O)n2C,-18%
CN1[C@@H]2CC(OC(=O)[C@H](CO)c3ccccc3)C[C@H]1[C@@H]1O[C@@H]12 (stereo partly specified),?
COc1ccc2[nH]cc(CCNc3cc(-c4ccccc4C(F)(F)F)ncn3)c2c1,?
CC(C)CN1CCC(=O)N([C@H](COc2ccccc2)Cc2ccccc2)CC1,?
N#CCCn1c(=O)c(-c2cccs2)nc2cnc(Oc3cccc(Cl)c3)nc21,4%
COc1cccc(Nc2ncc3nc(-c4cccs4)c(=O)n(CCC#N)c3n2)c1,3%
COc1ccc2c(c1OC)C(Cc1ccccc1)N1CCc3cc4c(cc3C1C2)OCO4 (stereo unspecified),?
COc1ccc(C(=O)OC2CC3CC[C@H](C2)N3C(C)=O)cc1OC (stereo partly specified),-8%
O=C(O)CCCC[C@@H]1SC[C@@H]2NC(=O)N[C@@H]21,-4%
Cc1cc(CNC(=O)c2cnn(-c3ncc4c(n3)-c3ccccc3CCC4)c2C2CC2)on1,-9%
CO[C@@]1(NC(=O)CSCC#N)C(=O)N2C(C(=O)O)=C(CSc3nnnn3C)CSC21 (stereo partly specified),-2%
O=S1(=O)OC(c2ccc(O)cc2)(c2ccc(O)cc2)c2ccccc21,-17%
O=C(Nc1cccc(F)c1)N1CC[C@@]2(CCCN(C(=O)c3ccncc3)C2)C1,-10%
OC1OC[C@@H](O)[C@H](O)[C@@H]1O (stereo partly specified),-22%
Cn1c(-c2ccncc2)nc2cc(C(=O)N[C@H]3CCCCNC3=O)cc(NC(=O)C3CCC3)c21,-1%
C[N+](C)(C)CC[N+]1(C)Cc2c(Cl)c(Cl)c(Cl)c(Cl)c2C1,-15%&-18%
CCCCCCCCCCCC(=O)OCC(O)CO (stereo unspecified),?

# Carrying on.
SMILES,EPAC2 antag
CN1CCN(c2ncncc2-c2cccnc2)CC1,-21%
COc1ccccc1-c1nc(N(C)Cc2ccco2)c2ccccc2n1,?
Cn1cc(-c2nc3cnc(Oc4ccccc4)nc3n(CCC#N)c2=O)c2ccccc21,-11%
O=C1c2cccc3c2[C@H](CCC3)CN1[C@@H]1CN2CCC1CC2,-6%
Cc1cc(C(=O)Nc2cccc(-c3nc(CNC(=O)c4cc5ccccc5[nH]4)c(C)o3)c2)c(C)o1,-7%
Cc1nnc(SCC2=C(C(=O)O)N3C(=O)C(NC(=O)Cn4cnnn4)[C@@H]3SC2)s1 (stereo partly specified),2%
O=C(c1ccco1)N1CCC2(CCN(Cc3nccs3)CC2)CC1,-12%
N#Cc1ccc(CN2CC[C@@]3(CCCN(C(=O)c4ccco4)C3)C2)cc1,-12%
CN1CCN(c2ncc3nc(-c4ccccc4)c(=O)n(CCC#N)c3n2)CC1,-19%
CC(C)(C)c1ccc(C(O)CCCN2CCC(C(O)(c3ccccc3)c3ccccc3)CC2)cc1 (stereo unspecified),-16%&-3%&9%
Cc1nc(CC(=O)NCC2Cc3cc(F)cc(-c4ccc(F)c(C)c4)c3O2)cs1 (stereo unspecified),-48%
Nc1ncnc2c1c(I)cn2[C@@H]1C[C@H](N)[C@@H](O)[C@H]1O,2%
S=C(S)OC1CC2CC1C1CCCC21 (stereo unspecified),-28%
N[C@H](Cc1ccccc1)C(=O)O,-17%
CC(=O)OCC(=O)[C@@]1(O)CCC2C3CC(C)C4=CC(=O)C=CC4(C)C3C(O)CC21C (stereo partly specified),-11%
CN1CC[C@@]2(CCCN(C(=O)c3cccn3C)C2)C1,-18%
CCCCCCCC(=O)OCC(O)CO (stereo unspecified),-4%
NS(=O)(=O)c1cccc2c1c([N+](=O)[O-])cc1nc(O)c(O)nc12,-9%&-28%
CN(CCc1ccc(Cl)c(Cl)c1)C[C@@H](O)COc1ccc(NS(C)(=O)=O)cc1,-16%
CCOC(=O)CN[C@@H](C(=O)N1CC[C@H]1C(=O)NCc1ccc(/C(N)=N/O)cc1)C1CCCCC1,5%
CC(=O)OC(C)(C)C1Cc2cc3ccc(=O)oc3cc2O1 (stereo unspecified),-8%
CC1CCC(NC(=O)N(CCCl)N=O)CC1 (stereo unspecified),-28%
COCCNc1ncnc2ccc(-c3ccc(N(C)C)cc3)cc12,-20%
Cc1[nH]c2ccccc2c1/C=C/c1nccc2ccccc12,?
CC[N+](CC)(CC)CCOC(=O)C(C1CCCC1)C1CCCC1,-2%

# A second format for 2 compounds above.
Structure | EPAC2 antag
CN1CCN(c2ncncc2-c2cccnc2)CC1 | -21%
COc1ccccc1-c1nc(N(C)Cc2ccco2)c2ccccc2n1 | ?

# 6 structures already listed, arranged by molecular weight, largest number first.
SMILES,EPAC2 antag
CN(CCc1ccc(Cl)c(Cl)c1)C[C@@H](O)COc1ccc(NS(C)(=O)=O)cc1,-16%
CC(=O)OCC(=O)[C@@]1(O)CCC2C3CC(C)C4=CC(=O)C=CC4(C)C3C(O)CC21C (stereo partly specified),-11%
COc1ccccc1-c1nc(N(C)Cc2ccco2)c2ccccc2n1,?
O=C1c2cccc3c2[C@H](CCC3)CN1[C@@H]1CN2CCC1CC2,-6%
CN1CCN(c2ncncc2-c2cccnc2)CC1,-21%
N[C@H](Cc1ccccc1)C(=O)O,-17%

# Other compounds
SMILES,EPAC2 antag
c1cnc2c(-c3nccc4c3[nH]c3ccccc34)cccc2c1,-32%
CC1=C(C(=O)O)N2C(=O)[C@@H](NC(=O)C(N)c3ccccc3)[C@H]2SC1 (stereo partly specified),-21%
CN(C)c1ncc2nc(-c3cc(F)cc(F)c3)c(=O)n(CCC#N)c2n1,1%
CC1=C(/C=C/C(C)=C/C=C/C(C)=C/C=C/C=C(C)/C=C/C=C(C)/C=C/C(=O)[C@]2(C)CC(O)CC2(C)C)C(C)(C)CC(O)C1 (stereo partly specified),-14%
COc1cc(OC)c2c(=O)c(O)c(-c3ccc(OC)c(OC)c3)oc2c1,-15%
COC(=O)CNC(=O)C(=O)OC,-1%[11.4 µM]
Oc1cc2c(c(Cl)c1O)CCNCC2c1ccccc1 (stereo unspecified),-4%&9%
O=C(NCCCN1CCOCC1)c1cnn(-c2ncc3c(n2)-c2ccccc2CC3)c1C1CC1,-14%
O=C(Nc1ccccc1)N1CC2(CCN(C(=O)c3ccncc3)CC2)C1,-21%
CSc1nnc(CNC(=O)/C=C/c2ccccc2Cl)n1-c1ccc(F)cc1,1%
C[C@H](N)[C@H](O)c1cccc(O)c1,-4%[56.6 µM]
COc1ccc(S(=O)(=O)N(CCO)c2ccccc2CN(C)C/C=C/c2ccc(Cl)cc2)cc1,?
COc1cc(=O)n2c(c1C(=O)N(C)Cc1nonc1C)CCN(C(=O)c1cc(C)ccc1C)CC2,-18%
COCCn1c(=O)c(-c2cccc(C#N)c2)nc2cnc(OC)nc21,-9%

# Reprinted at random: 3 records from the list
SMILES,EPAC2 antag
COCCn1c(=O)c(-c2cccc(C#N)c2)nc2cnc(OC)nc21,-9%
CN(C)c1ncc2nc(-c3cc(F)cc(F)c3)c(=O)n(CCC#N)c2n1,1%
CC1=C(/C=C/C(C)=C/C=C/C(C)=C/C=C/C=C(C)/C=C/C=C(C)/C=C/C(=O)[C@]2(C)CC(O)CC2(C)C)C(C)(C)CC(O)C1 (stereo partly specified),-14%

# Single values from the list.
# EPAC2 antag result of `O=C(NCCCN1CCOCC1)c1cnn(-c2ncc3c(n2)-c2ccccc2CC3)c1C1CC1` : -14%
# EPAC2 antag result of `CC1=C(/C=C/C(C)=C/C=C/C(C)=C/C=C/C=C(C)/C=C/C=C(C)/C=C/C(=O)[C@]2(C)CC(O)CC2(C)C)C(C)(C)CC(O)C1` (stereo partly specified) : -14%
# EPAC2 antag result of `CN(C)c1ncc2nc(-c3cc(F)cc(F)c3)c(=O)n(CCC#N)c2n1` : 1%

# Source: PubChem BioAssay (National Center for Advancing Translational Sciences (NCATS))

# This is a subset (hit frequency here may not be typical).
